Screens as filed in PubChem BioAssay.
D2 ag: activates the human D2 dopamine receptor | activation, % (concentration not given with the values) | P14416 | actives 0.084% (n = 360,000) | DiscoveRx PathHunter D2 beta-arrestin, luminescence, 90 min; 100% = 57 uM dopamine signal | AID 624465; in the data active = activation above about 40%; inconclusive = about 15% to 40%; inactive = below about 15%; further: compound concentration not given in the record; the text of the record calls up to 30% inactive
Target sequence (P14416 whole entry, looked up): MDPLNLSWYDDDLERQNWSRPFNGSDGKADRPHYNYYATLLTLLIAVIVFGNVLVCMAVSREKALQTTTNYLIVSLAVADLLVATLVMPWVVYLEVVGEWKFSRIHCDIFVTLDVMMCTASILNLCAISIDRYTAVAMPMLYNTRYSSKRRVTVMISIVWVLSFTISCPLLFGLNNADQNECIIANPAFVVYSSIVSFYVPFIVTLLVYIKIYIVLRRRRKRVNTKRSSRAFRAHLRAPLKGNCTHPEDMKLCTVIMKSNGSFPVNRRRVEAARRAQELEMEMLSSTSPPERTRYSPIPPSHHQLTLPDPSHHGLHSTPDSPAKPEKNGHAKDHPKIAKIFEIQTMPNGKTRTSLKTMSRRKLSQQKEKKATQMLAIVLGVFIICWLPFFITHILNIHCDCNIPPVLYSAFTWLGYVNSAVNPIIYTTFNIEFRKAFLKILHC
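DiscoveRx PathHunter D2 beta-arrestin cells (2,100/well) attached overnight, then compound-stimulated 90 min at 37 C in HBSS/10 mM HEPES/0.1% Tween-20 buffer; beta-galactosidase complementation read by luminescence after 1 h at ambient temperature. Dopamine 57 uM final (EC100) as control.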
TRPML1 blocker: blocks the human TRPML1 channel | Q9GZU1 | TRPML1-inducible cells, Ca2+ dye fluorescence, FDSS; hits give low values; inhibition of EC80 agonist-evoked calcium signal | activity change, negative = inhibition, % (no concentration beside the values) | actives 0.02% (n = 390,000); in the data active means activity change below about -50%; inconclusive means about -30% to -50%; inactive means above about -30%;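 further: stimulus is agonist 54-4 at its EC80 concentration; on the % scale 0 is the no-effect control and ±100 the full control effect; compound concentration not given in the record; the text of the record puts the active cut at -80%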
Target sequence (Q9GZU1 whole entry, looked up): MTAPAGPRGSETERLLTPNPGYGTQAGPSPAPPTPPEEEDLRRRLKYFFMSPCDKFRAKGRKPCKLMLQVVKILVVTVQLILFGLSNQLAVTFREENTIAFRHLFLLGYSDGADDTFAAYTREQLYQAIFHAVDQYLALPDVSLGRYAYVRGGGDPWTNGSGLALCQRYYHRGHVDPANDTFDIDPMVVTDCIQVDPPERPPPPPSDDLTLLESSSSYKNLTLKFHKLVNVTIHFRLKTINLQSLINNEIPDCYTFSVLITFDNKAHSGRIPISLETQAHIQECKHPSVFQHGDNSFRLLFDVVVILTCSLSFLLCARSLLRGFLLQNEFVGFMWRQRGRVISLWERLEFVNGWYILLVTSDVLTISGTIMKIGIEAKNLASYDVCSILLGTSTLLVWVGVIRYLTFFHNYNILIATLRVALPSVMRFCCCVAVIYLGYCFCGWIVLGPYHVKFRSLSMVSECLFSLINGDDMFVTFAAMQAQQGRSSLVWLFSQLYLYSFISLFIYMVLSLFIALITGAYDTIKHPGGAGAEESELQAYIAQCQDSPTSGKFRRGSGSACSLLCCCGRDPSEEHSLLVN
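Tet-induced TRPML1-DL cells loaded with Ca8 no-wash calcium dye were read kinetically on FDSS. Compound addition was followed by EC80 agonist 54-4 (4 uM final); inhibition was read over 110 s.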
PINK1 expr mod: changes PINK1 expression; PINK1 immunofluorescence, high-content cytometry, 24 h; Potency, µM (highest dose often 76.6 µM), inactives show at the top dose activation (PINK1 increase), hits mostly activators; actives 0.2% (n = 410,000); AID 624263; active = well fitted activation curve with a large enough effect; inconclusive = small, poorly fitted or top-dose-only effect; inactive = flat fitted curve, though single readings scatter; cell line not stated here;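 further: potency means the concentration at half of the fitted maximal effect; % of control where 0% means no effect; nearly all actives have a fitted effect of over 65% in size; a mitochondrial uncoupler was the plate control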
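Compound titrations (5 concentrations, 24 h) on a stable cell line; DMSO and CCCP controls. Endpoint: fixed-cell PINK1 immunofluorescence with mitochondrial, cell and nuclear markers, scanned by microplate cytometer.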
Six1-Eya2 inh: inhibitors of human Six1/Eya2 interaction; Q15475+O00167; activity change, % (no concentration beside the values); actives 0.56% (n = 360,000); AID 651725; AlphaScreen GST-Six1/His-Eya2 binding, biochemical; hits give low values; control for the full effect not named in the record; in the data active = activity change below about -65%; inconclusive = about -30% to -65%; inactive = above about -30%; further: on the % scale 0 is the no-effect control and ±100 the full control effect; compound concentration not given in the record
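Homogeneous AlphaScreen proximity assay pairing GST-Six1 with His-tagged Eya2 (added as 5X mix: 250 nM and 500 nM) in 50 mM Tris pH 8.0, 300 mM NaCl, 1 mM TCEP. Glutathione donor and nickel acceptor beads; 1 h, 37 °C, dark.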
TRPML1 agonist: agonists of human TRPML1 channel; actives 0.12% (n = 410,000); AID 624414; Q9GZU1; activation, % (no concentration beside the values); TRPML1-expressing cells, Ca2+ dye fluorescence, FDSS; host cell line not named in the record; reference of the full effect not given here; in the data active = activation above about 50%; inconclusive = about 30% to 50%; inactive = below about 30%; further: 0% is about no effect; the text of the record puts the active cut at 80%
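Agonist activity was taken from a 110 s kinetic Ca2+ dye read on the FDSS after pinning compounds onto TRPML1-DL cells. The cells were seeded at 1,500/well with Tet inducer, incubated about 16 h, then dye-loaded at room temperature.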
CtBP-E1A blk: inhibitors of CtBP/E1A interaction | actives 0.49% (n = 340,000) | AID 651724 | AlphaScreen GST-E1A/His-CtBP binding, 1536-well; hits give low values; control for the full effect not named in the record | activity change, % (no concentration beside the values); in the data active means activity change below about -65%; inconclusive means about -30% to -65%; inactive means above about -30%; further: on the % scale 0 is the no-effect control and ±100 the full control effect; compound concentration not given in the record
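GST-E1A and His-tagged CtBP (125 nM each as 5X stock) were preincubated with pin-transferred compound for 2 h at 37 °C in the dark, then glutathione donor and nickel acceptor beads were added for 1 h before AlphaScreen reading.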
The depositor's hits bear a star; u = inconclusive; x = no result given; & = joins results of further samples. Rows were taken by chance; overall some 1% were active at least once.

SMILES	D2 ag	TRPML1 blocker	PINK1 expr mod	Six1-Eya2 inh	TRPML1 agonist	CtBP-E1A blk
O=C(CCc1ccccc1)Nc1cccc(NC(=O)CCc2ccccc2)c1	5.0	4	u	0	4.7	6
Cc1ccc(N2C(=O)c3cccc4cccc(c34)C2=O)cc1	-3.3	6	1.1%	2	1.1	x
CCOC(=O)c1c(CS(=O)(=O)c2ccccc2)n(C)c2cc(Br)c(O)cc12	-4.4	6	10%	-12	0.9	-7
CC1NC(=O)NC1CCCCC(=O)O (configuration not stated)	-1.5	1	1.2%	3	-0.9	4
Cc1ccc(NC(=O)CNC(=O)c2ccc(Oc3ccccc3)cc2)nc1	1.5	-3	6.8%	0	1.8	4
CC(C)CNS(=O)(=O)c1ccc(CCC(=O)NCc2ccc(Cl)cc2)cc1	6.2	2	1.0%	-1	-0.6	3
O=C(CS(=O)(=O)c1cccc2nsnc12)N1CCN(c2ccccc2)CC1	x	0	-3.7%	x	0.1	x
Cc1ccccc1Cn1nc(C)c(NC(=O)c2cc3nc(-c4ccco4)cc(C(F)(F)F)n3n2)c1C	-2.1	18	0.8%	-3	0.3	-5
CN(C)S(=O)(=O)c1ccc2c(c1)nnn2CCNC(=O)Nc1ccc(Cl)cc1	x	34	0.6%	x	-0.8	x
COc1ccccc1C(=O)N/C(=C/c1ccc2c(c1)OCO2)C(=O)Nc1ccc(C(=O)O)cc1	-5.1	2	-3.1%	-9	-0.2	-19
CN(C)/C=C/C(=O)c1ccncc1	-2.5	7	-0.2%	-3	-0.4	11
COC(=O)c1ccc(C(NC(=O)OCc2ccccc2)/C(F)=C/[C@@H](C)C(=O)NCc2ccc(OC)c(OC)c2)cc1 (some centres not stated)	1.1	8	-1.9%	-1	0.8	2
CCc1cc(C(=O)OC)c(NC(=O)CN2CCN(C(=O)C3CCCO3)CC2)s1 (configuration not stated)	-4.0	-10	-3.1%	-2	1.1	10
CCCCc1c(-c2ccccc2OC)ncn1Cc1ccc(-c2ccccc2)cc1	x	x	-1.3%	-8	3.1	-8
CC1=C(C(=O)OC2CCC(C)CC2)C(c2ccc(O)c([N+](=O)[O-])c2)NC(=O)N1 (configuration not stated)	-1.5	6	5.0%	-1	2.0	1
Cc1nc2sc3c(c2c(=O)n1N)CCC3	2.8	15	0.9%	-2	0.3	-6
COCCNC(=O)Cn1nc(-c2ccccc2)c2ccccc2c1=O	-8.8	-2&8	0.4%&1.8%	5	-0.5&-0.7	x
CCOC(=O)C(=O)C1C(=O)Nc2ccccc21 (configuration not stated)	-5.0	5	0.7%	5	0.0	x
CNC(=O)c1cc2ncc(C(F)(F)F)cc2s1	-2.4	-17	-2.2%	8	0.9	0
C[C@H]1CN([C@@H](C)CO)C(=O)CCCn2cc(nn2)CO[C@@H]1CN(C)S(=O)(=O)c1ccc(Oc2ccccc2)nc1	-4.9	24	1.4%	3	-0.1	-13
COc1cc2[nH]c(Cl)c([N+](=O)[O-])c2cc1OC	3.8	18	1.2%	-17	-0.2	-21
CC(C)N1CCN(c2ccncc2S(=O)(=O)N2CCOCC2)CC1	-0.1	1	-1.3%	7	-0.1	9
O=C(Nc1ccc(Oc2ccsc2C(=O)O)cc1)c1ccccc1F	-3.3	-18	1.9%	3	0.4	x
COc1ccccc1C(=O)Nc1cccc(OCc2cc(=O)n3c4c(sc3n2)CCCC4)c1	x	-15	1.6%	x	0.6	x
O=C(Nc1nc(-c2cccnc2)cs1)c1cccc([N+](=O)[O-])c1	-1.8	17	11%	2	-0.6	14
CC(C)Oc1ccc(Cn2c(=O)sc3ccccc32)cc1	3.3	-11	5.8%	23	5.3	21
CCC(OC(C)=O)c1cc2c(cc1[N+](=O)[O-])OCCO2 (configuration not stated)	1.9	14	0.6%	1	1.8	x
Cc1cc(NC(=O)CSc2nc3c(C)c(C)ccc3cc2C)no1	0.4	11	7.6%	8	-1.3	-13
Brc1ccc(Nc2ncnc3[nH]ncc23)cc1	-7.7	3	4.6%	-18	-0.6	x
COCCCNc1nc2ccccc2nc1NS(=O)(=O)c1ccccc1	2.8	1	0.4%	10	0.0	x
O=C(Nc1cccc(Br)c1)Nc1nc2c(s1)CCCCCC2	x	-13	u	x	0.2	x
COc1cc2ccccc2cc1C(=O)N1CCCC(C(F)(F)F)C1 (configuration not stated)	-3.7	-11	-1.0%	0	0.3	9
CC12CCCCC1N(O)C(=O)C(=O)N2O (configuration not stated)	3.5	-2	-1.5%	-3	0.0	7
COc1cc(OC)c(OC)cc1C=NCC1(c2ccccc2)CCCC1	-1.7	-8	x	-1	-0.2	9
CCOc1ccc(C2NC(=O)NC(C)=C2C(=O)OCc2ccccc2)cc1 (configuration not stated)	0.7	-24	-0.2%	11	-0.4	-17
CO/N=C/CC(=O)c1ccc(OC)cc1	-7.9	-12	0.8%	7	0.0	1
COc1cc2c(cc1OC)C(C)N(C(=O)CCc1c[nH]c3ccccc13)CC2 (configuration not stated)	-3.9	4	12%	-10	0.8	0
CCOC(=O)c1c(N)sn(-c2ccccc2)c1=S	0.1	6	-2.0%	-10	-1.8	-6
CN(c1cccc(NC(=O)c2ccccc2N(C)S(C)(=O)=O)c1)S(C)(=O)=O	0.7	15	-2.2%	7	1.1	4
Cc1ccc2c(c1)N(C(C)C(=O)NCc1cccs1)C(=O)CO2 (configuration not stated)	-4.3	16	0.7%	1	0.3	x
CCOc1cnc(-c2c(-c3c(F)cccc3Cl)noc2C)o1	0.5	-1	-3.2%	10	3.2	-14
Cc1ccc(/C=C(\NC(=O)c2ccccc2)C(=O)N2CCCC2C(=O)O)cc1 (configuration not stated)	6.9	6	2.4%	7	1.2	3
NC(=O)[C@@H]1CCCN1Cc1c(C(=O)N2CCc3ccccc3C2)nc2ccc(Cl)cn12	-6.4	57	9.5%	4	0.2	1
CCn1c(=O)c(C(=O)Nc2ccccn2)c(O)c2ccccc21	2.6	-11	7.8%	4	0.3	4
Cc1ccc(CNC(=O)c2ccc(N3CCC4(CC3)CC(c3ccccc3)=NO4)c(NC(=O)c3ccc(Cl)c([N+](=O)[O-])c3)c2)cc1	-1.1	-1	1.9%	-19	-0.4	-2
Cc1c(C(=O)c2ccc(F)cc2F)c2ccccn2c1CCC#N	-2.5	5	-1.4%	-15	0.1	-4
COCCNc1nc(C)c(C(C)=O)s1	-12	8	1.3%	0	-0.3	0
COc1ccc(C2=Cc3ccccc3C(CC(=O)C3CC3)N2c2ccc(-c3cc(OC)c(OC)c(OC)c3)cc2)cc1 (configuration not stated)	x	x	2.5%	14	-0.2	23
N#Cc1ccccc1OCC(=O)OCC(=O)N1CCCC1	-1.2	-3	0.6%	9	-0.9	4
COc1cccc(-n2c(SCC(=O)NC3CCCC3)nnc2-c2ccco2)c1	-3.3	-2	-1.4%	3	-0.5	6
Remaining list, next part.
SMILES	D2 ag	TRPML1 blocker	PINK1 expr mod	Six1-Eya2 inh	TRPML1 agonist	CtBP-E1A blk
CC(=O)Nc1ccc(NC(=O)COc2ccc(-c3ccc(C#N)cc3)cc2)cc1	2.0	4	0.6%	0	-0.1	-5
Cn1nc2c(c1C(=O)O)CCCC2	-3.8	7	-0.4%	-24	-0.6	10
CCOc1ccc(OCCCC(=O)Nc2nc3ccccc3[nH]2)cc1	0.8	-5	1.1%	8	-0.8	0
CCN(CCO)Cc1csc2cc(C)ccc12	-5.0	17	-2.4%	2	-0.7	7
COc1ccc(C(C)=O)cc1CSc1nnc(Nc2ccc(C)cc2)s1	-5.7	3	-0.4%	u	0.8	-11
COCCNC(=O)C1CCCN(S(=O)(=O)c2cccc3nsnc23)C1 (configuration not stated)	-4.5	13	-1.3%	12	-0.3	25
CCSc1nnc2c(n1)OC(c1sccc1C)N(C(C)=O)c1ccccc1-2 (configuration not stated)	x	31	1.3%	x	2.7	x
O=C(NC(=S)Nc1ccccc1N1CCOCC1)c1ccc(-c2ccccc2F)o1	-5.8	-4	2.8%	-26	0.0	4
Cc1cc(OCC(=O)Nc2ccc(CCO)cc2)c2c(C)c(C)c(=O)oc2c1	3.7	15	5.2%	-13	-0.5	-30
Cc1ccc(S(=O)(=O)N2CCN(C(C)C(=O)N3CCCc4ccccc43)CC2)cc1 (configuration not stated)	-5.0	-1	-0.3%	u	0.1	2
O=C1/C(=C/c2ccc(O)c([N+](=O)[O-])c2)SC(=S)N1Cc1ccccc1	-3.9	-5	32µM*	-2	0.0	-2
S=C(c1ccc(-c2ccccc2)cc1)N1CCOCC1	4.0	-11	-0.7%	-10	-0.5	-9
CCOc1cccc(C2c3c(oc4ccc(F)cc4c3=O)C(=O)N2c2cc(C)ccn2)c1 (configuration not stated)	x	54	0.1%	x	1.2	x
CN(NC(=O)c1cccc(Cl)c1)c1nc(-c2ccccc2)nnc1C(F)(F)F	-3.0	77	14%	-3	2.1	-1
CCS(=O)(=O)N1Cc2ccccc2CC1C(=O)Nc1ccc(F)cc1 (configuration not stated)	-3.4	31	0.8%	0	-0.9	x
Cc1ccc2c(c1)C(c1ccccc1)N(C(=O)c1ccc(F)cc1)CC(=O)N2 (configuration not stated)	8.1	-21	-0.9%	-3	0.1	0
COc1cccc(-n2c(SCc3ccccn3)nc3c(c2=O)SCC3)c1	0.7	34	-0.6%	-3	3.5	-8

Some of these compounds in order of count of non-hydrogen atoms, high to low.
SMILES	D2 ag	TRPML1 blocker	PINK1 expr mod	Six1-Eya2 inh	TRPML1 agonist	CtBP-E1A blk
Cc1ccc(CNC(=O)c2ccc(N3CCC4(CC3)CC(c3ccccc3)=NO4)c(NC(=O)c3ccc(Cl)c([N+](=O)[O-])c3)c2)cc1	-1.1	-1	1.9%	-19	-0.4	-2
C[C@H]1CN([C@@H](C)CO)C(=O)CCCn2cc(nn2)CO[C@@H]1CN(C)S(=O)(=O)c1ccc(Oc2ccccc2)nc1	-4.9	24	1.4%	3	-0.1	-13
Cc1ccccc1Cn1nc(C)c(NC(=O)c2cc3nc(-c4ccco4)cc(C(F)(F)F)n3n2)c1C	-2.1	18	0.8%	-3	0.3	-5
COc1ccccc1C(=O)N/C(=C/c1ccc2c(c1)OCO2)C(=O)Nc1ccc(C(=O)O)cc1	-5.1	2	-3.1%	-9	-0.2	-19
CC(=O)Nc1ccc(NC(=O)COc2ccc(-c3ccc(C#N)cc3)cc2)cc1	2.0	4	0.6%	0	-0.1	-5
Cc1ccc(/C=C(\NC(=O)c2ccccc2)C(=O)N2CCCC2C(=O)O)cc1 (configuration not stated)	6.9	6	2.4%	7	1.2	3
COCCCNc1nc2ccccc2nc1NS(=O)(=O)c1ccccc1	2.8	1	0.4%	10	0.0	x
COCCNC(=O)Cn1nc(-c2ccccc2)c2ccccc2c1=O	-8.8	-2&8	0.4%&1.8%	5	-0.5&-0.7	x
COc1cc2ccccc2cc1C(=O)N1CCCC(C(F)(F)F)C1 (configuration not stated)	-3.7	-11	-1.0%	0	0.3	9
CC12CCCCC1N(O)C(=O)C(=O)N2O (configuration not stated)	3.5	-2	-1.5%	-3	0.0	7
COCCNc1nc(C)c(C(C)=O)s1	-12	8	1.3%	0	-0.3	0
